Assay outcomes: PubChem BioAssay, PCMD
Calb biofilm kill = clotrimazole potentiators killing C. albicans biofilm, primary screen, 4-compound mixtures | C. albicans biofilm persisters + clotrimazole, fluorescence viability; primary screen in compound mixtures of four per well | inhibition, % at 7.6 µM | 120,000 compounds, 0.02% hits;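 active = inhibition above 30.3% in the primary screen of four-compound pools, then above 30% when the compound was retested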;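 note: compounds exposed to preformed 24 h biofilms for 48 h; the number belongs to the whole pool; some results filed as inactive read as strong as hits; inactives centre near 12; 0% = biofilm with clotrimazole alone and 100% = kill control; retested singly at about 60 µM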
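Incubation: 24 h biofilm formation, then 48 h compound exposure, 37 °C | Material: C. albicans biofilms | Buffer or medium: RPMI/MOPS medium, pH 7.0 | Measured by: 2-h Alamar Blue fluorescence, 535/590 nm excitation/emission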
* marks the source's active call; other numbers are inactive results. Only part of the results is shown, so the mix of outcomes need not match the whole.

structure,Calb biofilm kill
O=C(/C(=C(\O)c1ccccc1)c1ncc[nH]1)c1ccccc1,0
O=C(O)Cn1cc(C(=S)N2CCCCC2)c2ccccc21,0
CCOc1ccc(S(=O)(=O)N2CCN(C(=S)NCc3ccccc3)CC2)cc1,21
O=C(CCc1ccc(S(=O)(=O)N2CCOCC2)cc1)NN=C1CCCCCCC1,17
CCC(CC)C1C(C#N)=C(N)SC(N)=C1C#N,11
Cc1nn(CC(=O)Nc2ccc(S(=O)(=O)N(C)C)cc2)c(C)c1[N+](=O)[O-],14
CCc1ccc2c(c1)C1(NN=C(c3cccc4ccccc34)S1)C(=O)N2 (stereo not given),8
O=C(COC(=O)CC1CC2CCC1C2)Nc1cccc(S(=O)(=O)NC2=NCCCCC2)c1 (stereo not given),8
O=C(CN(Cc1cccs1)S(=O)(=O)c1ccc(S(=O)(=O)N2CCCCC2)cc1)Nc1ccccc1,9
Cc1ncc(CO)c(/C=N/NC(=O)c2cc3c(s2)CCCC3)c1O,11
COc1ccc(/C=N/NC(=O)c2cnccn2)c(OC)c1OC,17
O=C(NN=C1CCCCCCCCCCC1)c1ccccc1F,8
COc1cc(C=O)cc(Br)c1OCC(N)=O,1
CCc1ccc(C2CC(c3ccc(Cl)cc3)n3nc(N)nc3N2)cc1 (stereo not given),12
Cc1ccsc1C1C(C#N)=C(N)OC2=C1C(=O)CC(C)C2 (stereo not given),13
O=C(CCC1CCCN(C(=O)c2ccncc2)C1)NCc1ccc(F)c(F)c1 (stereo not given),1
Cc1nc(N)c(Cc2ccccc2F)c(N)n1,4
CC(C)[C@H](NS(=O)(=O)c1ccccc1)C(=O)OCC(=O)Nc1ccccc1Sc1ccccc1,6
COc1cccc(NC(=O)NC2CCCCC2C)c1 (stereo not given),3
Nc1nc2c(c(=O)[nH]1)C(c1ccccc1)C1=C(N2)c2ccccc2C1=O (stereo not given),1

Quoted at random: two compounds from above.
structure,Calb biofilm kill
O=C(NN=C1CCCCCCCCCCC1)c1ccccc1F,8
Cc1ccsc1C1C(C#N)=C(N)OC2=C1C(=O)CC(C)C2 (stereo not given),13

Going on with the list.
structure,Calb biofilm kill
O=C(O)CC(NC(=O)c1ccncc1)c1ccccc1 (stereo not given),20
Cn1c(=O)[nH]c(NC2CCCCC2)c(N=O)c1=O,-2
COCCCNC(=S)NCCCNc1nc2cc(C)cc(C)c2cc1C#N,5
Cc1ccccc1CN(C)CC(=O)NC(C)CCc1ccccc1 (stereo not given),12
CC(C)CC1CCCCC1OC(=O)CN1CCCCC1 (stereo not given),19
CC(C)(C)C(=O)Nc1ccccc1C(=O)Nc1ccncc1,6
CN(C)c1ccc(/C=N/NC(=O)CNC(=O)c2ccco2)cc1,14
Cc1c(CC(Cl)(Cl)Cl)c2c(n1O)CC(C)(C)CC2=O,13
CCC(c1nnnn1C1CCCC1)N1CCN(c2cccc(OC)c2)CC1 (stereo not given),2
O=C(NN1CCOCC1)c1cn(-c2ccccc2)nc1-c1cccs1,8
NC(=O)c1nsc(C(=O)N(CC(=O)NCc2ccco2)c2ccccc2F)c1N,5
COc1ccc(OC)c2c1C(=O)C(Cl)=C(Cl)C2=O,28
Cn1nc2c(c1C(=O)N1CCCC(C(=O)c3cc(F)ccc3F)C1)CCCC2 (stereo not given),18
CCn1c(C(=O)O)c(CC(=O)NC2CCCCCC2)c2ccccc21,14
COc1ccc(CNC(=O)Nc2ccc3c(c2)N(C)C(=O)CS3)cc1,15
COc1ccc(C2CC(c3cccs3)=NN2c2ccccc2)cc1 (stereo not given),60
Cc1cc(=O)oc2cc(NS(=O)(=O)c3ccc(F)cc3)ccc12,25
CC[n+]1c(/C=C/N(C)c2ccccc2)oc2ccc(Cl)cc21,29
O=C(NCCc1nnc2ccc(NCc3ccc(F)cc3)nn12)c1ccccc1,17
O=C(O)c1nn(-c2cccc(Cl)c2)c(=O)cc1O,19

Molecules shown so far containing an NH in an aromatic ring, in the order listed:
structure,Calb biofilm kill
O=C(/C(=C(\O)c1ccccc1)c1ncc[nH]1)c1ccccc1,0
Nc1nc2c(c(=O)[nH]1)C(c1ccccc1)C1=C(N2)c2ccccc2C1=O (stereo not given),1
Cn1c(=O)[nH]c(NC2CCCCC2)c(N=O)c1=O,-2

Further structures:
structure,Calb biofilm kill
CC(NC(=O)COC(=O)c1ccc2ccccc2n1)C1CC2CCC1C2 (stereo not given),11
Cn1cc(CC(=O)NC2CCCCC2)c2ccccc21,3
COc1cc(/C=N/NC(=S)Nc2cccc(S(=O)(=O)N(C)C)c2)cc(OC)c1O,10
O=S(=O)(c1cccc(C(F)(F)F)c1)N(CCCN1CCOCC1)Cc1cccs1,13
C=C(C)Cn1c(C)cc(C)c(S(=O)(=O)c2ccc(C)cc2)c1=O,8
Cc1nc2ccccc2n1CC(=O)N/N=C/c1cccnc1,21
Cc1ccc(NC(=O)/C=C/c2ccc([N+](=O)[O-])s2)c(C)c1,7
COc1cc(CNC(C)C)c(Br)cc1OC1CCCC1,16
CCC(CC)NC(=O)c1cccc(NC(=O)C(C)C)c1,5
CCOC(=O)c1c(-c2cccc([N+](=O)[O-])c2)csc1NC(=O)C1CCCCC1,2
O=C(COc1ccc(Cl)cc1Cl)Nc1ccccc1NS(=O)(=O)c1cccs1,16
CC(C)N1CCC(N2CCN(Cc3cc4c(cc3Cl)OCO4)CC2CCO)CC1 (stereo not given),-2
COc1ccccc1-c1nc2ccccc2nc1-c1ccccc1,8
Cc1ccc(Cn2nnc3c(=O)n(CC(=O)NCc4ccc5c(c4)OCO5)cnc32)cc1,10
O=C1OC(Cc2ccccn2)C(O)=C1C1=NCCCCN1 (stereo not given),2
S=C(Nc1cccc(Cl)c1Cl)Nn1cnnc1,20
Cc1ccc(S(=O)(=O)NC(=O)COc2ccccc2)cc1,10
Cc1cc(C)n(CC(=O)N/N=C/c2cccc([N+](=O)[O-])c2)n1,-2
CS(=O)(=O)N(CC(=O)NC1CCCCC1)Cc1ccc(F)cc1,7
FC(F)(F)c1ccccc1NC(=S)N1CCN(Cc2ccc3c(c2)OCO3)CC1,7
Cc1ccc(S(=O)(=O)NC2CCCCC2)c2nsnc12,13
CC1CCN(S(=O)C23CC4CC(CC(C4)C2)C3)CC1 (stereo not given),12
COc1ccccc1Nc1nc2ccccc2n2cnnc12,19
CCOC(=O)c1ccc(N2Cc3ccccc3C2=NC(=O)c2ccncc2)cc1,46
CC(C)=Cc1oc2ccc([N+](=O)[O-])cc2c1N1CCOCC1,10
Cc1c(NS(=O)(=O)c2ccc(NCC3CCCO3)c([N+](=O)[O-])c2)c(=O)n(-c2ccccc2)n1C (stereo not given),11
CCOC(=O)Cn1c2ccc(F)cc2c2nc(C)sc21,29
CCOCCOC(=O)COC(=O)c1ccccc1NC(=O)c1ccccc1,9
Cc1ccc(-c2nc(CN3CCCCC3c3cccc(F)c3)c(C)o2)o1 (stereo not given),24
COc1cc(NC(=O)Cn2c(=O)n(CC3CCCO3)c(=O)c3ccccc32)cc(OC)c1 (stereo not given),16
CN(C)S(=O)(=O)c1ccc(-n2cccc2)cc1,6
CC(=O)c1c(C)[nH]c(C(=O)OCC(=O)Nc2ccc(C)cc2[N+](=O)[O-])c1C,23
O=C(Nc1cc2cc([N+](=O)[O-])ccc2oc1=O)c1cccs1,1
Cc1ccc(C(=O)Cn2cncn2)cc1,16
Nc1nnc(N)c2ccccc12,14
O=C(COC(=O)CCc1nc2ccccc2c(=O)[nH]1)Nc1ccccc1Cl,17
CCOC(=O)c1ccc(Oc2nc(N(C)C)nc(N3CCOCC3)n2)cc1,-1
COc1ccc(C(=O)O/N=C(\N)c2ccncc2)cc1OC,15
CCN(CC)C(=O)C1=C(C)NC(=S)NC1c1ccc(C)s1 (stereo not given),12
COc1cccc(CNC(=O)CCC2CCCN(C(=O)CCC(F)(F)F)C2)c1 (stereo not given),-4
COc1ccc(CCN(C)c2ccc(S(=O)(=O)N3CCCC3)cc2[N+](=O)[O-])cc1OC,8
C=CCN1C(=O)C(CC(=O)O)SC1=Nc1cccc([N+](=O)[O-])c1 (stereo not given),4
O=C(NC1(N2CCOCC2)CC1)c1ccc(Cl)cc1,3
O=C(NCCCN1CCOCC1)c1cccc(S(=O)(=O)Nc2cc(Cl)ccc2Cl)c1,12
COC(=O)N/N=C/c1ccccc1Cl,13
CCOC(=O)c1sc(NC(=O)CCN2C(=O)c3ccccc3C2=O)c(C(=O)OCC)c1C,0
CCCN1CCC(=O)N([C@H](CSc2ccc(C)cc2)CC(C)C)CC1,-1
COc1ccccc1N(CC(O)Cn1c(C)nc2ccccc21)S(=O)(=O)c1ccccc1 (stereo not given),14
COC(=O)c1ccc(NC(=O)NC2CCCCC2)cc1,24
CCCn1c(SCC(=O)Nc2cccc(Cl)c2Cl)n[nH]c1=O,17

(more compounds)
structure,Calb biofilm kill
O=C(CSc1n[nH]c(=O)n1C1CC1)c1ccc2c(c1)OCCO2,21
CCOC(=O)c1cc(-c2ccc(F)cc2)n(CC(=O)NCc2ccccn2)c1C,14
O=C(O)CC(NC(=O)C(c1ccccc1)c1ccccc1)c1cccc([N+](=O)[O-])c1 (stereo not given),24
O=C(CSc1nc2[nH]ncc2c(=O)n1-c1ccccc1Br)NCc1ccccc1Cl,15
O=C(COC(=O)C1(c2ccccc2F)CCCC1)Nc1ncc(C(F)(F)F)cc1Cl,-5
CC(C)(CO)CNC(=O)c1ccc(OC2CCN(C(=O)C3CC3)CC2)cc1,17
Cc1csc2c(N3CCN(C(=O)NC(C)(C)C)CC3)ncnc12,11
O=C(O)C1C2CCC(C2)C1C(=O)NCCC1=CCCCC1 (stereo not given),13
CCCOc1ccc(CCC(=O)N/N=C/c2ccc([N+](=O)[O-])o2)cc1,19
OCc1nc2ccccc2n1/N=C/c1cccs1,5
O=C(CN1C(=O)NC(c2ccccc2)(c2ccccc2)C1=O)Nc1ccc2[nH]c(=O)[nH]c2c1,24
CCOc1nc(C)cc(COC)c1C(N)=O,15
O=c1[nH]c(/C(Cl)=C/c2cccc(C(F)(F)F)c2)nc2cc(Cl)ccc12,15
CCCSc1nc(=S)n(Cc2ccccc2)c(C)c1C(C)=O,1
O=[N+]([O-])c1ccccc1S(=O)(=O)Oc1ccc(/C=N/n2cnnc2)cc1,8
COc1ccc(-c2[nH]ncc2CN(C)CC2CCCCO2)cc1F (stereo not given),14
Cc1onc(-c2ccccc2)c1C(=O)N/N=C/C=C/c1ccccc1,16
CC(C)c1ccccc1NC(=O)COC(=O)/C=C/c1cccc([N+](=O)[O-])c1,19
COC(=O)Cc1ccc(NC(=S)NN2CCOCC2)cc1,19
O=C(N/N=C/C=C/c1ccccc1[N+](=O)[O-])c1cc(-c2cccnc2)nc2ccccc12,20
CN1CCN(/N=C/c2ccc(OCc3ccccc3)cc2)CC1,17
CC(OC(=O)c1c2c(nc3ccccc13)/C(=C\c1ccc3c(c1)OCO3)CCC2)C(=O)Nc1ccc(S(N)(=O)=O)cc1 (stereo not given),6
CCCC(=O)Nc1ccccc1NC(=O)c1ccc(OCC)c(OCC)c1,17
CSc1nc(N)nc(C2CC2)n1,19
Cc1nnsc1C(=O)NNC(=O)c1cccc2ccccc12,3
CCC1SC(CC)C(=O)N(CC(=O)Nc2ccc3c(c2)OCO3)C1=O (stereo not given),16
COc1ccc(OCC(=O)O/N=C(\N)c2ccc(OC)c(OC)c2)cc1,6
COC(=O)c1cccc(-c2ccc(/C=N/N3C(=O)C4C5C=CC(C6CC56)C4C3=O)o2)c1 (stereo not given),15
O=C(NCc1ccccc1)c1cc(=O)c2ccccc2o1,-5
CCCCC(=O)NC(c1cccs1)c1cc(Cl)c2cccnc2c1O (stereo not given),19
COc1ccc(-n2c(CNC(=O)COc3ccc(Cl)cc3Cl)n[nH]c2=S)cc1,17
Cc1cccc(NC(=O)CCSc2nncn2C)c1,9
O=C(NN1C(=O)C2C3C=CC(C4CC34)C2C1=O)c1ccc(Cl)c(Cl)c1 (stereo not given),24
COc1ccc(NC(=O)C(C)N2c3cccc4cccc(c34)S2(=O)=O)cc1OC (stereo not given),2
CC1=C(C#N)C(c2ccc(O)cc2)C2=C(CCCC2=O)N1 (stereo not given),-1
CC(=O)c1ccc(N=C2SCCCN2C(=O)C2CCCC2)cc1,-2
C/C(=N/N=C1/NC(=O)CC(C(=O)O)S1)c1ccccc1 (stereo not given),18
O=C(C1=C[C@H](C2CCCCC2)C[C@H](OCc2ccc(CO)cc2)O1)N1CCN(Cc2ccc3c(c2)OCO3)CC1,19
COc1ccccc1NC(=O)c1cnc(Nc2ccccc2OC)c2ccccc12,12
O=C(O)CCC(=O)NNC(=O)CCC1CCCCC1,13
COC(=O)[C@@H]1C[C@@H]2CC[C@@H](O)C[C@@H]2N1Cc1ccc(C(F)(F)F)cc1,20

Taken from above:
In Calb biofilm kill, COc1ccc(-n2c(CNC(=O)COc3ccc(Cl)cc3Cl)n[nH]c2=S)cc1 is entered as 17
In Calb biofilm kill, CC(=O)c1ccc(N=C2SCCCN2C(=O)C2CCCC2)cc1 is entered as -2
In Calb biofilm kill, C/C(=N/N=C1/NC(=O)CC(C(=O)O)S1)c1ccccc1 (stereo not given) is entered as 18
In Calb biofilm kill, Cc1cccc(NC(=O)CCSc2nncn2C)c1 is entered as 9
In Calb biofilm kill, CC1=C(C#N)C(c2ccc(O)cc2)C2=C(CCCC2=O)N1 (stereo not given) is entered as -1
In Calb biofilm kill, COC(=O)[C@@H]1C[C@@H]2CC[C@@H](O)C[C@@H]2N1Cc1ccc(C(F)(F)F)cc1 is entered as 20
